PINK1 expr mod: modulators of PINK1 expression | PINK1 immunofluorescence, high-content cytometry, 24 h | actives 0.2% (n = 410,000) | Potency, µM (doses to about 76.6 µM), for inactives: at the highest dose activation (PINK1 increase), hits mostly activators | AID 624263; active = well fitted activation curve with a large enough effect; inconclusive = small, poorly fitted or top-dose-only effect; inactive = flat fitted curve, though single readings scatter; cell line not stated here;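 also: potency is read from the fitted curve at half-maximal effect; % of control where 0% means no effect; nearly all actives have a fitted effect of over 65% in size; a mitochondrial uncoupler was the plate control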
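Compound titrations (5 concentrations, 24 h) on a stable cell line; DMSO and CCCP controls. Endpoint: fixed-cell PINK1 immunofluorescence with mitochondrial, cell and nuclear markers, scanned by microplate cytometer.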
Six1-Eya2 inh: blocks human Six1 binding to Eya2; actives 0.56% (n = 360,000); AlphaScreen GST-Six1/His-Eya2 binding, biochemical; stronger effect = lower value; control for the full effect not named in the record; activity change, % (test concentration not listed); in the data active = activity change below about -65%; inconclusive = about -30% to -65%; inactive = above about -30%; also: % is scaled to controls: 0 for no effect and ±100 for the full control effect; compound concentration not given in the record
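Compounds are tested against tagged Six1 and Eya2 proteins bridged by glutathione donor and nickel acceptor beads; after a one-hour incubation at 37 °C without light, AlphaScreen emission is recorded.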
TRPV1 PAM: human TRPV1 potentiation; AID 540277; Q8NER1; TRPV1-expressing cells, Fluo-8 calcium influx, capsaicin EC20 potentiation; host cell line not named in the record; control for the full effect not named in the record; actives 0.02% (n = 320,000); potentiation, % at 8.33 µM; active means potentiation above 80%; inconclusive means 30% to 80%; inactive means below 30%; also: 0% is about no effect
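Cells expressing TRPV1 were dye-loaded with Fluo-8 and read kinetically: 10 s baseline, 3 min after compound (agonist portion), then 2 min after EC20 capsaicin (allosteric enhancer portion). Calcium-bound dye fluorescence at 480/520 nm.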
D2 ag: agonists of human D2 dopamine receptor (beta-arrestin). P14416. DiscoveRx PathHunter D2 beta-arrestin, luminescence, 90 min; 100% = 57 uM dopamine signal. activation, % (no concentration beside the values). actives 0.084% (n = 360,000); in the data active = activation above about 40%; inconclusive = about 15% to 40%; inactive = below about 15%; also: compound concentration not given in the record; the text of the record calls up to 30% inactive
Target sequence (P14416 whole entry, looked up): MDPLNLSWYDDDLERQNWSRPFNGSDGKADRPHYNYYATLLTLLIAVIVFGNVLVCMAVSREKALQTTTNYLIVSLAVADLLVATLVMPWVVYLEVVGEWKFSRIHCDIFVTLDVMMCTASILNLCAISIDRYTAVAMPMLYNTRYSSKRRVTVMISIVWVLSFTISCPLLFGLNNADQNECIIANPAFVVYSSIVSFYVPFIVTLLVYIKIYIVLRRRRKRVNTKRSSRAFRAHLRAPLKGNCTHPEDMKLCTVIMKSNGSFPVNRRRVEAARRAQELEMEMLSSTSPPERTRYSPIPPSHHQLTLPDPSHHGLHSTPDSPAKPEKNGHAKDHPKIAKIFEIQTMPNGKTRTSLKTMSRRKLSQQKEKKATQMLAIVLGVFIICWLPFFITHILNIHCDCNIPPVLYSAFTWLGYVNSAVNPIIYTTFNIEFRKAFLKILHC
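DiscoveRx PathHunter D2 beta-arrestin cells (2,100/well) attached overnight, then compound-stimulated 90 min at 37 C in HBSS/10 mM HEPES/0.1% Tween-20 buffer; beta-galactosidase complementation read by luminescence after 1 h at ambient temperature. Dopamine 57 uM final (EC100) as control.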
D2 PAM: potentiates the human D2 dopamine receptor allosterically; P14416; DiscoveRx D2 beta-arrestin cells, luminescence, 90 min; 100% = 57 uM dopamine signal; potentiation, % (concentration not given with the values); actives 0.23% (n = 360,000); AID 624464; active = potentiation of 50% or more; inconclusive = 30% to 50%; inactive = 30% or less;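 also: compound concentration not given in the record; tested on top of an EC20 dose of dopamine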
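D2 cells co-treated with compound plus 50 nM dopamine (EC20) for 90 min at 37 deg C to detect potentiation. Beta-arrestin recruitment was read as enzyme-fragment luminescence after 1 h at ambient temperature. Full response was set by 57 uM dopamine.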
Sfp inh: inhibitors of Bacillus subtilis Sfp phosphopantetheinyl transferase; Q9F4F7; Biochemical Sfp PPTase activity, qHTS; Potency, µM, for the others: max response, negative = inhibition, actives largely listed as inhibitors; actives 3.5% (n = 310,000); AID 1490; active = well fitted inhibition curve with a large enough effect; inconclusive = small, poorly fitted or top-dose-only effect, or another doubt; inactive = no such curve, though single readings can be large or run the other way;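 also: the enzyme is Sfp with the accession as filed and its product quenches rhodamine fluorescence; potency is read from the fitted curve at half-maximal effect; 0% = enzyme reaction without inhibitor and -100% = no enzyme wells; top concentration of the series not given in the record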
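Reaction rates are the 30-min fluorescence difference (ex 525, em 598 nm) in wells containing 15 nM Sfp, 5 uM rhodamine-CoA and 12.5 uM BHQ-2-YbbR at pH 7.6 with 10 mM MgCl2.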
CtBP-E1A inh: blocks the CtBP interaction with E1A | actives 0.49% (n = 340,000) | AID 651724 | activity change, % (test concentration not listed) | AlphaScreen GST-E1A/His-CtBP binding, 1536-well; stronger effect = lower value; control for the full effect not named in the record; in the data active means activity change below about -65%; inconclusive means about -30% to -65%; inactive means above about -30%; also: % is scaled to controls: 0 for no effect and ±100 for the full control effect; compound concentration not given in the record
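Steps: dispense buffer (Tris pH 8.0, NaCl 300 mM, TCEP 1 mM, BSA, Tween 20); add 5X protein mix (GST-E1A, His-CtBP, 125 nM each); pin 23 nL compound; 2 h at 37 °C, dark; add 5X beads (50 ug/mL); 1 h; read.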
* hit, by the source's call; u = inconclusive; x = no result given; [ ] = another dose, or the depositor's remark.

Value order – PINK1 expr mod | D2 PAM | Six1-Eya2 inh | Sfp inh | TRPV1 PAM | CtBP-E1A inh | D2 ag
N#C/C(=C\C=C\c1ccccc1)C(=O)N1CCCC1
 : 10% | -3 | 5 | 13% | 6 | -1 | -2.6
CCOc1cc2[nH]c(=S)n(CCCN(CC)CC)c(=O)c2cc1OCC
 : -5.3%[38.3 µM] | -12 | -1 | -8% | 0 | 6 | 0.8
Cc1ccc(S(=O)(=O)N(C)C[C@@H]2Oc3ccc(NC(=O)Nc4cccc5ccccc45)cc3C(=O)N([C@H](C)CO)C[C@H]2C)cc1
 : 1.3% | -7 | -2 | x | x | -9 | -2.1
COC(=O)C(Cc1ccc(O)cc1)NC(=O)CCOc1ccc(OC)cc1 (centres undefined)
 : 1.2% | -2 | -3 | 24% | -7 | -8 | -5.2
COc1cccc(-n2c(SCC(=O)N3CCOCC3)nc3c([nH]c4ccccc43)c2=O)c1
 : x | -10 | 0 | x | x | 9 | -0.6
CCN(/N=C/c1ccc(N(C)C)cc1)c1nc2ccccc2[nH]1
 : 8.0% | 1 | -2 | 0% | -17 | x | 7.5
COc1cccc(/C=N/n2c(-c3cc(C)[nH]n3)n[nH]c2=S)c1O
 : -0.4% | -8 | -68* | 2.2µM* | 1 | -81* | 3.5
CCOC(=O)c1ccccc1NC(=O)COC(=O)CCNS(=O)(=O)c1ccccc1
 : -1.5% | 3 | 1 | -5% | 1 | 0 | -0.5
COc1cc(C)ccc1Oc1ccc([N+](=O)[O-])cc1
 : 2.3% | -8 | 45 | x | x | 0 | -5.7
NS(=O)(=O)c1ccc(CCNC(=O)c2cc(-c3cc(Cl)ccc3O)n[nH]2)cc1
 : 2.0% | -11 | 1 | 8% | 15 | -22 | -0.4
O=C(O)C1CCCCN1S(=O)(=O)c1cccc2nsnc12 (centres undefined)
 : 0.6% | -16 | 18 | 15% | -5 | 0 | -1.5
CC(C)Cn1c(SCC(=O)Nc2cccnc2Cl)nnc1-c1ccco1
 : -2.2% | -3 | -2 | x | x | 1 | 2.4
Cc1ccc2nc(Cl)c(/C=N/n3c(C)nnc3C)cc2c1
 : -0.5% | 3 | 9 | 5% | -10 | -2 | -4.6
O=C(CCl)N1c2ccccc2SCC1c1ccccc1 (centres undefined)
 : -1.7% | -9 | 7 | -2% | 8 | 0 | -9.2
Cn1c(/C=N/O)nc2ccccc21
 : 2.0% | 1 | -1 | -24% | 0 | -18 | -0.9
CCCc1[nH]nc2c1C(c1ccc(OC)c(Cn3nnc4ccccc43)c1)C(C#N)=C(N)O2 (centres undefined)
 : 8.1% | -3 | -16 | -13% | -1 | -17 | -2.6
CCOc1ccc2[nH]c(C)c(CN3CCCCCC3)c(=O)c2c1
 : -1.1% | -13 | 3 | 17% | -1 | -7 | 1.9
C[C@H](NC(=O)COc1ccc(Cl)cc1)C(=O)N1CCC2(CC1)NCCc1[nH]cnc12
 : -0.4% | -7 | -2 | 8% | 1 | 5 | -1.1
O=C(/C=C/c1cccs1)NC(=S)NNC(=O)c1ccccc1O
 : u | 0 | -76* | 37%[activator] | 9 | -94* | -4.3
CCCN(Cc1nc(-c2ccc(Cl)cc2)no1)CC1CCCO1 (centres undefined)
 : 10% | -1 | 5 | 9% | -6 | 15 | 3.5

Random excerpt: two compounds from above
Value order – PINK1 expr mod | D2 PAM | Six1-Eya2 inh | Sfp inh | TRPV1 PAM | CtBP-E1A inh | D2 ag
CCCc1[nH]nc2c1C(c1ccc(OC)c(Cn3nnc4ccccc43)c1)C(C#N)=C(N)O2 (centres undefined)
 : 8.1% | -3 | -16 | -13% | -1 | -17 | -2.6
Cn1c(/C=N/O)nc2ccccc21
 : 2.0% | 1 | -1 | -24% | 0 | -18 | -0.9

New compounds follow.
Value order – PINK1 expr mod | D2 PAM | Six1-Eya2 inh | Sfp inh | TRPV1 PAM | CtBP-E1A inh | D2 ag
CC(C)(CN1CCCC1)NS(=O)(=O)c1ccccc1
 : -1.0% | -3 | 9 | 6% | -17 | 0 | 7.2
COc1ccc(CN(C(=O)c2oc3cc(C)c(C)cc3c2C)C2CCS(=O)(=O)C2)cc1OC (centres undefined)
 : 0.5% | 3 | -9 | 2% | 7 | -15 | 0.5
Brc1ccc(-c2nnc3ccc(N4CCN(c5ccccc5)CC4)nn23)cc1
 : 3.9% | -19 | 1 | -3% | 5 | 1 | -3.2
CC1CCCCN1C(=O)COC(=O)c1ccc(N2CCCC2=O)cc1 (centres undefined)
 : 1.3% | -10 | -2 | x | x | x | -0.6
COC(=O)C1=C(C(=O)OC)[C@@H]2N(C)c3ccccc3[C@@]23C[C@@H](C(=O)OC)N(C(=O)c2ccco2)C3=N1
 : 0.0% | -4 | 1 | -24% | x | 3 | 1.4
CCCCCCCCNC(=O)/C(C#N)=C/c1ccc2c(c1)OCCO2
 : 2.4% | -23 | 1 | -10% | 17 | x | 1.9
Cc1nc2cc(NS(=O)(=O)c3ccccc3)ccc2n1C
 : 3.4% | 6 | -2 | 24% | 1 | 3 | 5.7
COc1cc(CN2CCN(Cc3cccc(OC)c3OC)CC2)cc(OC)c1
 : 1.8% | -16 | -4 | u | 2 | -1 | -2.6
CCCCCCCCNc1nc(Cl)nc(NCCN2CCOCC2)n1
 : -1.5% | -7 | 4 | -2% | -1 | -6 | 1.0
COc1ccc(C(C)(O)c2nc(-c3ccc(Cl)cc3)cs2)cc1 (centres undefined)
 : 12% | 6 | 6 | x | x | 5 | 2.4
CSc1ccc(/C=N/NC(=O)c2cc(O)cc(O)c2)cc1
 : 17% | 10 | -26 | -8% | -22 | 1 | -1.3
Cc1ccccc1N(CC(=O)NCc1ccc2c(c1)OCO2)C(=O)C1CSC(=O)C1 (centres undefined)
 : -0.6% | -10 | -20 | 12% | 1 | 0 | -3.7
CC(=O)c1ccc(NC(=O)Nc2ccc(NS(=O)(=O)c3ccc(C)cc3)cc2)cc1
 : 2.0% | 0 | -11 | 17% | 9 | -8 | 7.3
Cc1nc2cc(C(F)(F)F)ccc2n1C1CCN(CC(=O)N2CCOCC2)CC1
 : -0.1% | -20 | 5 | 6% | 4 | -4 | -1.6
CC(=C/c1ccccc1)/C=N/NC(=O)CSc1nc(C)cc(C)n1
 : -1.0% | -2 | -3 | 12% | 13 | 1 | -4.0
Cc1ccccc1N/C(=N/S(=O)(=O)c1cc(F)ccc1F)c1ccccc1
 : 1.0% | -12 | -3 | 5% | 3 | -3 | -2.2
C[C@H]1CC[C@]2(O[C@H](CCO)C[C@@H](O)[C@@H]2O)O1
 : 1.1% | -9 | -7 | 15% | -1 | -10 | -2.9
NS(=O)(=O)c1ccc(CCNC(=O)c2ccc3nccnc3c2)cc1
 : -4.3% | -4 | u | x | x | -22 | 1.9
COc1ccc(NC(=O)C2=C(C)NC(=O)NC2c2cccs2)c(OC)c1 (centres undefined)
 : 0.4% | -5 | 0 | 0% | 4 | 15 | -2.8
Cc1[nH]c(=O)[nH]c(=O)c1S(=O)(=O)Nc1ccc(Oc2ccccc2)cc1
 : 1.2% | 3 | 8 | -3% | -2 | 1 | -1.7
O=c1[nH]nc(-c2ccccc2)cc1-c1ccccc1
 : -0.6% | -20 | -2 | x | x | x | -5.5
OCCOCCn1c2ccccc2c2ccccc21
 : 1.6% | 9 | 11 | -4% | -6 | 1 | -3.1
O=C(N/N=C\c1ccccn1)C1COc2cc3ccccc3cc2O1 (centres undefined)
 : 0.8% | 9 | -14 | 3% | 1 | -16 | -2.2
COc1cccc(C(=O)Nc2cccc(OC(C)=O)c2)c1
 : 18%[38.3 µM] | -7 | -1 | 10% | -16 | -1 | -0.3
COc1cc(Cl)c(C)cc1NC(=O)CNC(C)c1ccccc1OC (centres undefined)
 : 7.7% | -24 | 6 | -25% | -3 | -9 | -6.3
CCCN(c1ccccc1F)S(=O)(=O)c1cc(-c2cc(C)no2)ccc1OC
 : -1.0% | -12 | 4 | 8% | 10 | x | -6.0
COc1cccc(N2CCN(C(=O)c3cccn4c(=O)c5c(C)c(C)sc5nc34)CC2)c1
 : 0.8% | -2 | -5 | -7% | -5 | 0 | -3.3
CCCOC(=O)c1sc2nc3c(cc2c1N)C(=O)CCC3
 : -0.3% | -1 | 0 | 6% | -6 | 3 | 0.5
CC(C)c1cc(CN2CCOCC2)cc(C(C)C)c1O
 : -0.1% | -16 | 19 | 7% | 1 | 4 | -0.9
O=C(N/N=C/c1[nH]c2ccccc2c1Cl)c1cccc(Br)c1
 : 12% | 5 | 10 | 16% | 8 | 3 | 5.3
CCO/C(=C/c1sc2ccc(OC)cc2[n+]1CCCS(=O)(=O)[O-])CC
 : x | -32 | -14 | u | 2 | 2 | -2.8
CCN(CC(=O)NCc1ccc(F)cc1)C(=O)/C=C/c1ccc(S(=O)(=O)N(CC)CC)cc1
 : 4.3% | -5 | 2 | 2% | u | 3 | 1.3
O=C1CSC(c2ccc(Cl)c(Cl)c2)N1c1nccs1 (centres undefined)
 : 5.1% | -2 | -1 | x | 8 | -1 | 1.8
O=C(N/N=C/C=C/c1ccc([N+](=O)[O-])cc1)c1cccs1
 : 1.3% | -21 | -3 | -30% | -6 | 0 | -0.1
Cc1occc1C(=O)Nc1ccc2ccccc2c1
 : 0.4% | -21 | 7 | -20% | -16 | 20 | -5.6
CN(C)/C=C1\SC(=S)N(N2C(=O)C3C4C=CC(C4)C3C2=O)C1=O (centres undefined)
 : -0.5% | 9 | 7 | 14% | 8 | 2 | -1.8
Cc1ccc(Nc2nc(C(=O)NCCCN3CCOCC3)cs2)cc1
 : 1.1% | -2 | -3 | -7% | -6 | -14 | 3.1
COC(=O)Cn1cnc2sc3c(c2c1=O)CCCC3
 : -0.4% | -3 | 2 | 15% | -13 | 1 | -2.2
C=CCNCCOCCOc1ccc(C)cc1Br
 : 0.5% | -39 | 10 | -18% | u | 18 | -5.7
O=S(=O)(c1cccc(F)c1)N1CCc2sccc2C1c1ccc(OC(F)(F)F)cc1 (centres undefined)
 : 4.1% | -23 | -11 | 12% | 0 | 20 | -2.3
Cc1cc(C)nc(OC(C(=O)O)C(OCCc2ccccc2)(c2ccccc2)c2ccccc2)n1 (centres undefined)
 : -1.5% | -2 | 3 | 10% | -20 | 0 | 1.1

Source: PubChem BioAssay (National Center for Advancing Translational Sciences (NCATS))
